Compound activity (PubChem BioAssay)
Calb FLC – C. albicans growth modulation with fluconazole | C. albicans CaCi-2 (fluconazole-resistant clinical isolate) + fluconazole, Alamar Blue growth, 48 h | growth inhibition, % (no concentration beside the values) | actives 0.57% (n = 300,000);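 active = most replicates above 75%; inconclusive = exactly half above 75%; inactive = most below 75%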;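 note: all wells also contain fluconazole at 8 µg/ml as a sub-toxic cotreatment; 0% = median of DMSO wells and 100% = median of geldanamycin control wells; wells of about 8 µL received 7.5 nL stock; the first replicate is given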
Beta2AR agonist – agonists of human beta-2 adrenergic receptor inducing internalization | response, % (concentration not given with the values) | Am2.2-beta2AR cells, FAP receptor internalization, flow cytometry; reference of the scale not given here | AID 504454 | actives 0.43% (n = 340,000);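 active = response above a set limit, near 3 SD of response in nonfluorescent compounds, cut at about 42% in these data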;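 note: stock transfer was 100 nL into about 11 µL; a reference agonist was the positive control; negative values mostly stem from fluorescent compounds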
Target sequence (P07550 whole entry, looked up): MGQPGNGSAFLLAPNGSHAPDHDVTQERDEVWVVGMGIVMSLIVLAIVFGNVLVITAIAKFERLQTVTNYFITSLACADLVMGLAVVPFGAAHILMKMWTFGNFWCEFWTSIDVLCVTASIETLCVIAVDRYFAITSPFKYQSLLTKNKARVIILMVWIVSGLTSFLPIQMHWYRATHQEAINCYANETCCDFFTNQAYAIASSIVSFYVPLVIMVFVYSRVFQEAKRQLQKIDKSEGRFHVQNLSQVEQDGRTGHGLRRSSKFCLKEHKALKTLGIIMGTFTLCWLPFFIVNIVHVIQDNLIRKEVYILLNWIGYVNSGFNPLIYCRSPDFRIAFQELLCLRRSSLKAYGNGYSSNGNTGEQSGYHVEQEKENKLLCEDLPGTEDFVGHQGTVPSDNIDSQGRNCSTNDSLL
LANA-H2B inh – blocks KSHV LANA binding to histone H2A/H2B | Q9QR71 | actives 0.6% (n = 320,000) | cell-free LANA-H2A/H2B peptide, fluorescence polarization | AID 2629 | inhibition, % (concentration not given with the values); in the data active = inhibition mostly above about 10%, no sharp cut-off; inactive = mostly below about 6.7%;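 note: stock transfer was 7.5 nL into about 10 µL; 0% = median of vehicle wells and 100% = median of positive control wells; one replicate is shown; the record names a cut of 25% in any replicate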
T cruzi repl – blocks replication of Trypanosoma cruzi; actives 1.4% (n = 300,000); inhibition, % (no concentration beside the values); AID 1885; T. cruzi beta-gal in NIH3T3, luminescence, 90 h;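 active = mean inhibition across valid replicates above about 55%, limit read from the data; inconclusive = mean below that limit but half or more replicates reach it; inactive = mean below it, under half of replicates reach it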;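 note: signal also drops with host cell toxicity which is not excluded here; 0% = plate median of DMSO wells and 100% = zero luminescence signal; higher percent means less beta-gal luminescence so fewer parasites; stock transfer was 50 nL into about 50 µL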
The depositor's hits bear a star; ? = inconclusive; · = no result given. A portion of the library, so the mix of outcomes need not match the whole.

The line under a structure holds: Calb FLC, Beta2AR agonist, LANA-H2B inh, T cruzi repl
CCC(c1nnnn1CC1CCCO1)N(CCN1CCOCC1)Cc1cc2cc(C)ccc2[nH]c1=O (stereo unspecified)
 : ·, -9, ·, ·
O=c1c(/C=N/Nc2ccccc2)c(Sc2nnnn2-c2ccccc2)nc2ccccn12
 : ·, -307, ·, ·
COc1ccc(-c2cc(=O)c3ccc(O)cc3o2)cc1
 : ·, 14, ·, ·
CC(=O)NC(CCC(=O)O)C(=O)O (stereo unspecified)
 : ·, 2, ·, ·
C=C(C)C(O)CC/C(C)=C/Cc1c(O)ccc(C(=O)/C=C/c2ccc(O)cc2)c1O (stereo unspecified)
 : ·, 34, ·, ·
CCSC1(SCC)N=C(N)C2(C#N)C(c3ccccc3)NC(C)=C(C)C12C#N (stereo unspecified)
 : ·, 3, ·, -21
CC1(C)CC(=O)C(C=NCCN2CCN(C(=O)CC3CCCC3)CC2)=C(O)C1
 : ·, -6, ·, -11
O=S(=O)(c1ccccc1F)N(Cc1ccco1)Cc1nnc(-c2ccccc2Br)o1
 : 17, 13, ·, ·
O=C(O)CCCNc1ccc(S(=O)(=O)Nc2ccccc2C(=O)O)cc1C(=O)O
 : ·, 3, 7.4, ·
CC(C)COCC1CC2(CC(C)(c3csc(N)n3)OC2=O)C(=O)O1 (stereo unspecified)
 : ·, 3, -18, ·
CCN(CC)c1ccc(/C=N/Nc2nc3ccccc3[nH]2)cc1
 : 65, 33, ·, 51
CC(C)CC(c1nnnn1CC1CCCO1)N1CCN(C2CCCC2)CC1 (stereo unspecified)
 : -1, 0, ·, -10
Cc1cccc(N(CC(=O)NCc2ccco2)C(=O)CCC(=O)Nc2ccccn2)c1
 : -13, 0, ·, -5
CCOC(=O)c1ccc(NC(=O)C2CCCN(S(=O)(=O)c3ccc(F)cc3)C2)cc1 (stereo unspecified)
 : -4, 35, ·, 16
Cc1cccc(-n2c(N)cc(=O)nc2SCC(=O)Nc2nnc(C)s2)c1
 : 16, -7, ·, -3
O=C(N1CCOCC1)N1CCN(c2nc(-c3ccccc3)cs2)CC1
 : 14, 8, ·, -7
COc1ccc(C2C=C(c3ccc(C)cc3)Nc3ncnn32)cc1 (stereo unspecified)
 : 6, -12, ·, 9
CN1c2ccccc2C(C)(C)C12C=Nc1c(cc(N3CCOCC3)c3ccccc13)O2 (stereo unspecified)
 : 7, 7, ·, 33
COc1ccc(CN(CC(=O)NCC2CCCO2)C(=O)CCC(=O)Nc2cc(C)ccn2)cc1 (stereo unspecified)
 : -4, -3, ·, -7
CCC(C)[C@@H](NC(=O)OC(C)(C)C)c1nnc(S(=O)(=O)Cc2cccc(C)c2)o1 (stereo partly specified)
 : -9, 33, ·, -25
Cc1c(C(=O)N2CCC(C)CC2)sc2ncnc(N3CCN(c4ccccc4)CC3)c12
 : -2, 3, ·, 7
Cc1ccc(CNc2ccc(O)cc2)cc1
 : -2, -5, ·, -6
CCOC(=O)CSc1nc2c(c(=O)n(C)c(=O)n2C)n1CCCc1ccccc1
 : ?, -7, ·, -3
N#Cc1c(-c2ccccc2)cc(C2CC2)nc1SCC(=O)c1cccs1
 : -3, -9, ·, 29
Cc1ccc(-c2nc3ccccc3n3nnnc23)cc1
 : 24, -7, ·, -28
CCc1nnc(N2CCN(c3ncnc4c3oc3ccccc34)CC2)s1
 : 72, -3, ·, 12
CCCCn1c(=NC(=O)c2cccnc2)c(C(=O)OCC)cc2c(=O)n3ccccc3nc21
 : 10, -1, ·, 15
O=C(CCc1ccccc1)Nc1c(F)c(F)c(F)c(F)c1F
 : 7, 1, ·, 9
COCCn1nnnc1CN(Cc1cccnc1)Cc1cc2cc(OC)ccc2[nH]c1=O
 : 8, -9, ·, -16
CCOc1ccc(Cc2nnc(SCC(N)=O)n2C)cc1
 : -1, -5, ·, 0
COc1ccc(C2NCCc3c2[nH]c2ccccc32)cc1CN1CCc2cc(OC)c(OC)cc2C1C (stereo unspecified)
 : -9, 32, ·, 61*
COC(=O)c1c(NC(=O)c2ccc(C)o2)sc2c1CCCCC2
 : 4, 0, ·, 0
c1ccc2c(c1)oc1c(N3CCN(Cc4ccc5c(c4)OCO5)CC3)ncnc12
 : -34, -2, ·, 34
CC1CCN(S(=O)(=O)c2cn(CC(=O)N3CCN(C)CC3)c(=O)c3ccccc23)CC1
 : -5, -1, ·, 16
COc1cccc(OCc2nnc(SCC(=O)OCc3ccccc3)o2)c1
 : 17, 6, ·, 6
CC(O)(C#CCN1CCOCC1)c1ccccc1 (stereo unspecified)
 : 0, 1, ·, -6
CCC12CSc3nc(Cl)ccc3N1C(=O)C(=O)N2C (stereo unspecified)
 : 2, -7, ·, -27
CC(=O)CSc1nnc(-c2cnccn2)n1-c1ccccc1
 : -8, -2, ·, -7
CC1Cc2cc(/C(O)=C3/C(=O)C(=O)N(CCCN(C)C)C3c3ccncc3)ccc2O1 (stereo unspecified)
 : 0, -8, ·, 24
Cc1cc(Br)c2c(c1)=C(c1sc(N3CCCCCC3)nc1O)C(=O)N=2
 : -6, 4, ·, 0
NC1CCCCC1N=Cc1c(O)n(CCc2ccc(F)cc2)c(=O)[nH]c1=O (stereo unspecified)
 : 5, -1, ·, 2
O=C1CC(N2CCN(c3nc4ccccc4s3)CC2)C(=O)N1c1cccc(F)c1 (stereo unspecified)
 : -9, -1, ·, -9
CCOc1cc(S(=O)(=O)N2CCCCC2)ccc1F
 : -2, -12, ·, 0
CCCN1CCC(=O)N([C@H](CSc2ccc(C)cc2)CC(C)C)CC1
 : 17, -6, ·, 29
O=C(CCN1C(=O)c2ccccc2C1=O)N(CCO)Cc1ccccc1
 : -8, -11, ·, -7
Clc1ccccc1OCCn1cnc2ccccc21
 : -2, 1, ·, 1
O=C(NCc1cccnc1)C1COc2ccccc2O1 (stereo unspecified)
 : 4, 6, ·, -19
Cc1ccc(C(=O)CC(C(=O)O)n2cncn2)cc1 (stereo unspecified)
 : -14, 9, ·, -3
COCCCn1cnc2c(c1=O)c1nc3ccccc3nc1n2CCc1ccccc1
 : 13, -12, ·, 15
CCCCCCCCCn1c2c(c(=N)c3c1CCC3)CCCC2
 : 105*, 80*, ·, 58*

(next part)
The line under a structure holds: Calb FLC, Beta2AR agonist, LANA-H2B inh, T cruzi repl
CCCCCCn1cnc2c(c1=O)c1nc3ccccc3nc1n2/N=C/c1ccco1
 : -6, 4, ·, 29
CCOC(=O)N1CCC(NC(=O)c2ccc(CNS(=O)(=O)c3ccc(F)cc3)cc2)CC1
 : 0, -2, ·, 9
COc1ccc(CCNS(=O)(=O)c2cccc(S(=O)(=O)N3CCCC3)c2)cc1OC
 : 1, 4, ·, 11
COc1cccc(C(=O)NC(C)C(c2cccs2)N2CCN(C)CC2)c1 (stereo unspecified)
 : -6, 3, ·, 6
O=C(Nc1ccc(N2CCOCC2)cc1)c1cnsn1
 : 1, -3, ·, 2
O=C(Nc1ccccc1N1CCN(c2ccc(F)cc2)CC1)C1CCCCC1
 : -3, -4, ·, 39
Cc1ccc(-c2nnn(CC(=O)Nc3ccccc3-c3ccccc3)n2)c(-n2cnnn2)c1
 : 10, -10, ·, -4
Cn1c(=O)n(C)c2cc(CNc3ccc(N4CCOCC4)c(C(=O)O)c3)ccc21
 : 16, -4, ·, -8
CC(C)COc1ccc(C(=O)OCCN2CCOCC2)cc1
 : -8, -7, ·, 1
COCCn1c(SCc2nc3ccccc3c(=O)[nH]2)nnc1-c1ccncc1
 : -34, 0, ·, 2
Cc1ccc(C(=O)Nc2nc(=O)n(C(=O)c3ccccc3Cl)s2)cc1
 : -8, -9, ·, 0
O=S(=O)(c1ccccc1)N1CCN(c2ncnc3sc(-c4ccccc4)cc23)CC1
 : -6, -16, ·, 32
COc1cc(NS(=O)(=O)c2cccc3nsnc23)c(C(=O)O)cc1OC
 : 1, -1, ·, -1
O=C(NCCCO)NC12CC3CC(CC(C3)C1)C2
 : -19, 0, ·, -1
COc1ccccc1N1C(=O)C(Cl)=C(Nc2ccccc2O)C1=O
 : ?, -306, ·, 24
Cc1ccc(S(=O)(=O)NCC(=O)N(CC(=O)NC2CCCC2)c2ccc3c(c2)OCCO3)cc1
 : -6, 5, ·, 0
CCOC(=O)N1CCC(NC(=O)Cn2ncc3c4ccccc4n(C)c3c2=O)CC1
 : -2, -17, ·, -5
O=C1C(Cl)=C(N2CCCCC2)C(=O)C(Cl)=C1c1cnc(N2CCCCC2)s1
 : 22, 35, ·, 3
Cc1ccccc1NC(=O)N1C2CCCC1CC(NC(=O)C(C)(C)C)C2 (stereo unspecified)
 : ?, 4, ·, -8
COc1ccccc1C1NC(c2ccccc2OC)C(C)C(=O)C1C (stereo unspecified)
 : 64, 11, ·, -1
NC(=O)C1CCN(c2nc(-c3ccccc3)nc3c2oc2ccccc23)CC1
 : -25, -3, ·, -1
Cc1ccc(-c2nc(C)sc2CC(=O)NCc2ccco2)cc1
 : -12, 5, ·, -2
O=S(=O)(NCCC1=CCCCC1)c1cccc2nsnc12
 : -17, -1, ·, 4
CSc1nc(NC(C)=O)nc(C)c1Cl
 : -2, -8, ·, -14
Cc1cc(N2CCN(c3ccccn3)CC2)n2c(nc3ccccc32)c1C#N
 : -3, 26, ·, 1
CCn1c(CNC(=O)c2cccs2)nnc1SCC(=O)NCCc1ccccc1
 : 4, -2, ·, 0
Clc1ccc(C(c2nnnn2C2CCCCC2)N(Cc2cccnc2)Cc2ccco2)cc1 (stereo unspecified)
 : -1, 6, ·, 51
Cn1c(N/N=C2\CCCc3ccccc32)nc2c1c(=O)n(Cc1ccc(F)cc1)c(=O)n2C
 : 0, 36, ·, -2
COc1ccc(C2CC(=O)c3cnc(N)nc3C2)c(OC)c1 (stereo unspecified)
 : 1, 3, ·, -5
O=C(NCCCN1CCN(c2cccc(Cl)c2)CC1)C1CCC(=O)N1Cc1ccccc1Cl (stereo unspecified)
 : 1, -3, ·, 7
O=S(=O)(N1CCCCC1)N1CCN(S(=O)(=O)N2CCCCC2)CC1
 : 2, -1, ·, 1
COc1ccc(C(=O)n2nc(-c3ccccc3)nc2SC)cc1
 : 22, 4, ·, -4
Cc1cccc2c3nc4ccccc4nc3n(CCCN3C(=O)c4ccccc4C3=O)c12
 : -13, 7, ·, 10
Cc1ccccc1CNC(=O)c1ccccc1N
 : -46, -2, ·, -13
Cc1sc2nc(SCC(=O)OC(C)C)n(C)c(=O)c2c1C
 : 20, 0, ·, 0
COc1ccc(CNc2nc(NCc3ccc(OC)cc3)n(C(C)=O)n2)cc1
 : 0, 0, ·, -14
COc1ccc2oc(=O)c(NC(=O)C3CCCCC3)cc2c1
 : 2, -10, ·, -6
CCCOc1c(OC)cc(Cl)cc1C1NC(=O)NC(C)=C1C(=O)NCc1ccccc1 (stereo unspecified)
 : -13, 9, ·, -8
CCN(CC)CCNC(=O)CCCCn1c(=S)[nH]c2c([nH]c3ccc(OC)cc32)c1=O
 : 31, -14, ·, 0
CCCCC(c1nnnn1CCOC)N1CCN(C(=O)c2ccco2)CC1 (stereo unspecified)
 : 5, -3, ·, -5
COc1ccc(NS(=O)(=O)Cc2ccccc2)cc1OC
 : 31, 0, ·, -6
COc1ccccc1N1CCN(S(=O)(=O)c2ccc(Br)s2)CC1
 : 1, 0, ·, 0
Cc1cc(NC(=O)Cn2cnc3sc(C)c(-c4ccccc4)c3c2=O)no1
 : ?, -9, ·, 16
CCN(CC)C(=O)CNC(=O)Cc1ccc(Cl)cc1
 : 0, 21, ·, -24
Cc1ccc([N+](=O)[O-])cc1NC(=O)CN(C1CCCCC1)S(=O)(=O)c1ccc(Cl)cc1
 : 6, 5, ·, 59*
CCn1c2ccccc2c2cc(NC(=O)COC(=O)Cc3cn4ccsc4n3)ccc21
 : -2, 1, ·, -5
O=C1COc2ccc(C(=O)CSc3nnc(Cc4cccs4)n3-c3ccc(Cl)cc3)cc2N1
 : 13, -3, ·, 26
COc1cc(NC(=O)c2cnn3c(C)cc(C)nc23)c(OC)cc1Cl
 : -4, -2, ·, 9
COc1ccc2[nH]c(=O)c(CN(Cc3cccs3)S(=O)(=O)c3cccc4nsnc34)cc2c1
 : 0, 19, ·, 24
Cc1cc(C)cc(-n2c(=O)c3sccc3n(CC(=O)NCc3ccco3)c2=O)c1
 : 5, 8, ·, -17

Reprinted at random: 6 records from the list
The line under a structure holds: Calb FLC, Beta2AR agonist, LANA-H2B inh, T cruzi repl
Cc1ccc([N+](=O)[O-])cc1NC(=O)CN(C1CCCCC1)S(=O)(=O)c1ccc(Cl)cc1
 : 6, 5, ·, 59*
CCN(CC)C(=O)CNC(=O)Cc1ccc(Cl)cc1
 : 0, 21, ·, -24
COc1ccccc1N1CCN(S(=O)(=O)c2ccc(Br)s2)CC1
 : 1, 0, ·, 0
Cc1cc(C)cc(-n2c(=O)c3sccc3n(CC(=O)NCc3ccco3)c2=O)c1
 : 5, 8, ·, -17
Cc1cc(NC(=O)Cn2cnc3sc(C)c(-c4ccccc4)c3c2=O)no1
 : ?, -9, ·, 16
O=C1COc2ccc(C(=O)CSc3nnc(Cc4cccs4)n3-c3ccc(Cl)cc3)cc2N1
 : 13, -3, ·, 26
